Ecoli growth: inhibitors of Escherichia coli growth | OD600, 23 h; hits give low values | OD600 absorbance (concentration not given with the values) | actives 0.21% (n = 330,000) | AID 1053175;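 active = OD600 absorbance below the run mean of sample wells minus 3.6 SD, in any replicate, cut at about 0.56 in these data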;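 note: stock transfer was 300 nL into about 60 µL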
AF4-AF9 inh: MLL-AF4/AF9 protein interaction inhibition | AlphaScreen, biotin-AF4 peptide binding to FLAG-AF9 | inhibition, % at 10 µM | actives 0.47% (n = 350,000) | AID 651704;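 active = every replicate reaching a set inhibition limit, whatever the replicate mean, cut at about 25% in these data; inconclusive = mean inhibition reaches that limit but some replicates miss it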;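 note: 0% = plate neutral control median and 100% = total signal loss; the record names both 10 and 1 µM as test concentration; the first replicate is given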
Target sequence (P42568 whole entry, looked up): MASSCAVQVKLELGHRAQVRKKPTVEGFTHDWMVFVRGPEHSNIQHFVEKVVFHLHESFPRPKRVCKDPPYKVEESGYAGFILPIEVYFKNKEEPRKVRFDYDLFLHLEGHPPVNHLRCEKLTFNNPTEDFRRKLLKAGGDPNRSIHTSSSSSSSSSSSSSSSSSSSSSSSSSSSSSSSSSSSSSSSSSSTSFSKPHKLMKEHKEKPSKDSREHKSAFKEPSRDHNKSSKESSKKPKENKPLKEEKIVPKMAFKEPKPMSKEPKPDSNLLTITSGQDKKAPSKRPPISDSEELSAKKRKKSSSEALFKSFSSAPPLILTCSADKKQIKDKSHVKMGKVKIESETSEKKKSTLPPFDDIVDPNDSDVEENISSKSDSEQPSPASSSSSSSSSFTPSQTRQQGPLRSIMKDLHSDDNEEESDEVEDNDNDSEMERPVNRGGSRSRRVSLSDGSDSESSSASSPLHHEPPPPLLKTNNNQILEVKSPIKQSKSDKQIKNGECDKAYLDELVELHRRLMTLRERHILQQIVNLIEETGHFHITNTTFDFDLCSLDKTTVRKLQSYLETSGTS
FGF22 binding: binders of recombinant human FGF22 by thermal shift | SYPRO orange fluorescence; percent of sucrose octasulfate shift, DMSO zero | calls only at 9.99 µM | actives 1.5% (n = 340,000);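 active = melting point raised past a set limit in the mean and every replicate; inconclusive = no clear call; three in four hits are not shown here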
UCH37 DUB inh: blocks the human deubiquitinase UCH37; purified proteasome/UCH37, Ub-AMC cleavage fluorescence; Q9Y5K5; actives 0.33% (n = 330,000); inhibition, % (no concentration beside the values);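 active = mean of two replicates above 20%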;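 note: 0% = compound-free wells with enzyme and 100% = wells lacking proteasome; stock transfer was 100 nL into about 20 µL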
Target sequence (Q9Y5K5 whole entry, looked up): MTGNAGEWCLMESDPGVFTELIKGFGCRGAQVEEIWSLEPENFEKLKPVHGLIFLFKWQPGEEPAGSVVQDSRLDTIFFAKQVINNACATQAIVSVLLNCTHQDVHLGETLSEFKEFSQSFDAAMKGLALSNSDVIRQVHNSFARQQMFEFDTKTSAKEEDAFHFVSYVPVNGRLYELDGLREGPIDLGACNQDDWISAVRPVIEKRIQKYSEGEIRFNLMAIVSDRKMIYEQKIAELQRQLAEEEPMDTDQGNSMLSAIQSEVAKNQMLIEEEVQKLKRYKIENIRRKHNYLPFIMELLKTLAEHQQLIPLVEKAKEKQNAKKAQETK
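Test system – human UCH37 enzyme supplied as purified proteasome complex · Incubation – 30 min preincubation with enzyme, 25 min cleavage at room temperature · Detection – AMC fluorescence from Ub-AMC cleavage, excitation 355 nm, emission 460 nm · Benchmarks – no-proteasome wells (full inhibition) and compound-free wells (no inhibition)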
HNF4A DNA FP: change in binding of human HNF4 alpha to DNA; P41235; HNF4a-FITC DNA binding, fluorescence polarization, 1 h; activity change, % at 10 µM; actives 0.3% (n = 360,000); in the data active = activity change above about 30%, passing the limit was not always enough;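 note: controls were the assay level and a saturating level of protein; the project sought stronger binding though the title names inhibitors; some compounds called inactive have numbers as strong as hits; positive values seem to mean higher polarization but the record does not say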
Vif A3G: HIV-1 Vif–A3G interaction blockers – biochemical, TR-FRET, GST-Vif 1-94, biotin-A3G peptide, dose response retest, primary screen (AID 1117319) | TR-FRET GST-Vif / biotin-A3G peptide binding; higher % means a stronger effect; test concentration not given here; strong numbers were not always called active | inhibition, %, or IC50 in µM where a hit was titrated | actives 0.57% (n = 260,000);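 active = above the screen mean plus three standard deviations and confirmed in dose response; inconclusive = results disagree or hit not tested in dose response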;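 note: Vif residues 1-94 fused to GST binding biotinylated APOBEC3G peptide 110-148; 0% = full assay without inhibitor and 100% = GST in place of GST-Vif; retest series ran down from 100 µM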
RanGTP-Impb inh: disruptors of Ran-importin-beta complex formation – biochemical, FRET, CFP-Ran, YFP-importin-beta, homogeneous, primary screen. AID 2216. actives 1.1% (n = 300,000). inhibition, % (no concentration beside the values). cell-free CFP-Ran/YFP-importin-beta FRET ratio;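 active = most replicates above 15%; inconclusive = exactly half above 15%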;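 note: 0% = DMSO wells and 100% = Ran loaded with GDP instead of GTP; wells of about 40 µL received 100 nL stock; the first replicate is given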
The depositor's hits bear a star; i = inactive; ? = inconclusive; · = not tested or not shown; & = joins results of further samples. Not all compounds are listed; rates above refer to the full screens.

Screens in order: FGF22 binding	UCH37 DUB inh	Vif A3G	RanGTP-Impb inh	HNF4A DNA FP	Ecoli growth	AF4-AF9 inh
1: O=C(COC(=O)C1CC(O)CN1S(=O)(=O)c1ccc(Cl)cc1)c1ccccc1Cl (stereo unspecified)
 : ·	3.0	-13%	5.5	-1.5	0.7	·
2: CCN(C(=O)Cn1cnc2ccccc2c1=O)C1CCS(=O)(=O)C1 (stereo unspecified)
 : i	1.2	0%	-3.5	1.9	0.65	1.9
3: CCC(=O)Nc1nc2c(c(=O)[nH]1)CCCC2
 : i	-0.9	-4%	3.4	-1.4	0.69	-1.4
4: Cc1cccc(-c2nc(CS(=O)CC(=O)NC3CCCC3)c(C)o2)c1 (stereo unspecified)
 : i	4.6	0%	·	-1.0	0.77	-1.6
5: COC(=O)CCC(=O)CN
 : i	3.6	-12%	2.3	4.2	0.65	-13
6: Cc1ccc(S(=O)(=O)N(C)CC(=O)NCCCc2ccccc2)cc1
 : i	0.9	·	4.0	-5.9	0.7	-0.6
7: COc1ccc(CCNC(=O)[C@@H](NC(=O)N2CCn3c2nc2ccccc23)C(C)C)cc1OC
 : i	-0.7	·	2.8	0.7	0.63	2.1
8: Cc1ccc(S(=O)(=O)NCc2ccccc2)cc1C(=O)N1CC(C)CC(C)C1 (stereo unspecified)
 : i	·	·	-3.3	-4.0	·	8.7
9: Cc1cnc(C(=O)Nc2nnc(C3CC3)s2)cn1
 : ·	4.5	4%	1.9	-2.4	0.69	·
10: COc1ccc(Cl)cc1NC(=O)COC(=O)CCCN1C(=O)c2ccccc2C1=O
 : i	2.3	·	0.2	-1.8	0.69	3.5
11: CCS(=O)(=O)N1CCC(C(=O)NCCCOC)CC1
 : ·	2.6	-2%	6.8	1.7	0.7	·
12: CCOc1ccc(NC2c3ccccc3C(=O)N2Cc2ccco2)cc1 (stereo unspecified)
 : i	-0.1	5%	2.4	0.6	0.68	10
13: Cc1ccc(NC(=O)Cn2cnc3cc([N+](=O)[O-])ccc3c2=O)cc1
 : i	3.3	0%	-0.9	3.3	0.69	-3.5
14: COc1cc(OC)c(NS(=O)(=O)c2cc3[nH]c(=O)c(=O)[nH]c3cc2C)cc1Cl
 : i	2.9	·	0.8	4.6	0.72	-3.0
15: O=C(NCc1ccccc1)c1cccc(S(=O)(=O)NCc2ccccc2)c1
 : i	0.4	·	-0.7	0.2	0.64	-6.9
16: O=C(CN1CCN(CC(=O)Nc2ccccc2F)CC1)Nc1cccc(F)c1
 : i	5.0	·	-1.6	-1.6	0.65	-1.3
17: CCCCOc1ccc(C(=O)N/C(=C/C=C/c2ccccc2)C(=O)NCCCO)cc1
 : i	4.0	·	·	-2.4	0.69	-5.3
18: Cc1nc2c(ccc3nc(NC(=O)Cc4cccc5ccccc45)sc32)s1
 : i	·	-9%	7.1	5.7	·	-5.1
19: CSc1ncccc1C(=O)NCc1ccccc1Cl
 : i	-1.5	·	-0.1	-2.3	0.71	0.4
20: COc1ccc(C(O)(C(C)C)C(CN2CCOCC2)c2ccccc2)cc1 (stereo unspecified)
 : i	3.5	-1%	-1.5	1.0	0.64	1.3
21: COc1ccc(N/C=C/C(=C(C#N)C#N)N(C)C)cc1
 : i	1.1	·	2.3	0.3	0.64	-4.1
22: O=C(c1ccc(Cl)cc1)c1oc2ccccc2c1CS(=O)c1ccc(Cl)cc1 (stereo unspecified)
 : ·	1.4	26%	1.7	-0.6	0.78	·
23: CCCc1ccc(C(=O)CCC(=O)NNC(=O)c2ccncc2)cc1
 : i	2.8	·	7.5	1.8	0.67	-2.5
24: COc1ccccc1C(=O)N1CCN(c2cccc(Cl)c2)CC1
 : ·	1.4	-3%&-3%	3.7	-1.2	0.8	·
25: CC(=O)c1ccc(N(C(=O)CNC(=O)c2ccco2)C(C(=O)NC2CCCC2)c2ccncc2)cc1 (stereo unspecified)
 : i	4.6	·	2.4	-0.3	0.67	-4.0
26: O=C(/C=C/c1cccc(Cl)c1)OCc1cn2cc(Cl)ccc2n1
 : ·	2.4	-9%	0.2	-2.5	·	-3.1
27: COCc1cc(=O)n2[nH]c(C)cc2n1
 : ·	-1.5	3%	-3.6	-0.7	0.65	·
28: Nc1[nH]c(C(=O)c2ccc(Br)cc2)c(-c2ccc(Br)cc2)c1C(=O)NCCc1c[nH]c2ccccc12
 : i	·	·	·	3.3	·	-4.5
29: O=C1c2ccccc2S(=O)(=O)c2cc(C(=O)N3CCC(N4CCCC4)CC3)ccc21
 : ·	3.2	·	2.9	6.0	0.65	·
30: O=C(CN1CCNC(=O)C1)NCCc1ccc(Cl)cc1Cl
 : i	0.8	-4%	-3.2	0.4	0.69	0.5
31: C/C(CC(C)(C)c1ccccc1)=N\NS(=O)(=O)c1ccccc1
 : i	·	-2%	1.9	-0.2	·	-1.2
32: O=C(CSc1nnc(-c2cccnc2)o1)Nc1cccc(F)c1
 : i	4.1	1%	3.0	0.1	0.7	0.2
33: O=S(=O)(Nc1ccc(-c2ccc(N3CCOCC3)nn2)cc1)c1ccc(Cl)c(Cl)c1
 : i	2.8	-15%	4.4	0.8	0.69	0.5
34: O=C(COC(=O)c1ccc2c(c1Cl)C(=O)c1ccccc1C2=O)NC1CCCCC1
 : i	8.6	?	-2.9	-2.4	0.75	-0.7
35: O=C(Nc1ccc2nc(-c3ccc(Br)o3)[nH]c2c1)c1ccco1
 : ·	2.4	-1%	-2.1	1.2	0.69	·
36: O=C(Cn1cnc([N+](=O)[O-])n1)N/N=C/c1ccccc1O
 : ·	·	31%	-1.6	-1.1	·	·
37: CN1CCCC(OC(=O)COc2ccc(Br)cc2)C1 (stereo unspecified)
 : ·	1.1	6%	2.1	0.6	0.74	·
38: COc1ccc(/C=C2\SC(=S)N(Cc3cccnc3)C2=O)cc1C
 : ·	0.3	-13%	3.0	3.5	0.71	·
39: CCOc1ccc(C(CC(=O)O)NC(=O)Cc2ccc(Cl)cc2)cc1 (stereo unspecified)
 : i	1.7	-4%	-0.1	1.7	0.71	3.4
40: CCOC(=O)C1=C(C)N(CCCC(=O)NCc2ccc3c(c2)OCO3)C(=O)NC1c1ccc(Br)cc1 (stereo unspecified)
 : i	5.0	-6%	·	·	0.69	-0.4
41: CCN(c1ccc(OC)cc1)S(=O)(=O)c1ccc(-c2ccc(=O)[nH]n2)o1
 : i	5.0	·	0.3	-0.9	0.73	0.5
42: C[C@@H](NC(=O)c1ncn2c1c(=O)[nH]c1ccc(Br)cc12)c1ccccc1
 : i	·	-8%	·	24	·	-1.7
43: CC(C)C1Oc2ccccc2N(CC(=O)N(Cc2ccccn2)C2CC2)C1=O (stereo unspecified)
 : ·	2.0	-2%	0.2	-0.3	0.68	·
44: CC(=O)c1ccc(S(=O)(=O)N2CCN(c3ccnc4cc(Cl)ccc34)CC2)cc1
 : i	·	-2%	·	-0.8	·	-3.1
45: COc1ccc2[nH]c(=O)c(CN(C(=O)c3ccncc3)C(C)(C)C)cc2c1
 : ·	2.1	0%	0.8	-0.3	0.69	·
46: CCCC(c1nnnn1C1CCCC1)N1CCN(C(=O)c2ccco2)CC1 (stereo unspecified)
 : ·	0.3	0%	-0.8	3.5	0.8	·
47: O=C(NCc1ccco1)C1CC(=O)N(CCc2ccccc2)C1 (stereo unspecified)
 : ·	-1.0	?	0.8	-1.3	0.74	·
48: CCOC(=O)CN(c1ccccn1)S(=O)(=O)c1ccccc1
 : ·	-28	-2%	4.8	-0.3	0.73	·
49: N#C/C(=C/c1ccc(-c2ccc(S(=O)(=O)N3CCOCC3)cc2)o1)C(=O)NC1CC1
 : i	0.2	2%	·	5.6	0.68	-3.2
50: COc1ccccc1NC(=O)/C(C#N)=C/C=C/c1ccco1
 : ·	3.7	?	-1.8	3.3	0.68	·
51: Cc1cccc(N(C(=O)Cc2cccs2)C(C(=O)NC2CCCC2)c2ccsc2)c1 (stereo unspecified)
 : ·	3.7	2%	·	-1.2	0.71	·
52: CC(=O)Nc1ccc(S(=O)(=O)NCc2ccc(C(=O)NCc3ccc4c(c3)OCO4)cc2)cc1
 : ·	2.9	-3%&-1%	-2.2	0.5	0.76	·
53: COC(=O)C[C@@H]1CC[C@H](NS(=O)(=O)c2cccc(F)c2)[C@@H](CO)O1
 : i	·	·	·	6.2	·	1.1
54: Cn1c(=O)c2c(SCC(=O)NC3CCCC3)nc(CC(C)(C)C)nc2n(C)c1=O
 : i	3.5	·	1.1	-1.4	0.7	-1.0
55: CCN1CC(c2ccccc2)C(c2ccc(Cl)cc2)=N1 (stereo unspecified)
 : i	-28	-8%	-2.6	-1.4	0.62	2.3
56: CO/N=C/c1ccc(N2CCCC2)c([N+](=O)[O-])c1
 : i	·	·	-3.4	-0.5	·	3.0
57: Cc1cc2c(c(=O)n1CCN(C)C)C(c1ccncc1)C(C#N)=C(N)O2 (stereo unspecified)
 : ·	1.2	-1%	-2.2	-3.5	0.67	·
58: O=C1CN(C(=O)c2cc3ccccc3oc2=O)C(c2ccc(F)cc2)c2cc(Br)ccc2N1 (stereo unspecified)
 : i	7.2	-6%	-6.3	-1.3	0.74	4.9
59: COC(=O)Cn1cc(C#N)c2ccccc21
 : ·	1.8	2%	-1.1	-1.1	0.71	·
60: CCC1(c2ccc(Cl)cc2)NC(=O)N(CC(=O)NCc2ccc(F)cc2)C1=O (stereo unspecified)
 : i	5.5	·	2.2	-2.5	0.68	-13

The list goes on.
Screens in order: FGF22 binding	UCH37 DUB inh	Vif A3G	RanGTP-Impb inh	HNF4A DNA FP	Ecoli growth	AF4-AF9 inh
61: O=C(NCCCn1ccnc1)c1ccc(Br)o1
 : i	0.5	24%	3.6	1.8	0.68	3.9
62: Cc1ccc(NC(=O)C2CCN(S(=O)(=O)c3ccc4c(c3)NC(=O)CO4)CC2)cc1C
 : i	3.5	·	-4.5	1.1	0.7	2.1
63: CCCNC(=O)c1ccccc1NC(=O)C1COc2ccccc2O1 (stereo unspecified)
 : ·	1.6	-2%	-0.9	-1.4	0.76	·
64: CC(NS(=O)(=O)c1cccc(Cl)c1F)[C@H](O)c1ccccc1 (stereo partly specified)
 : i	·	-11%	·	3.7	·	3.8
65: O=C(Nc1nc2c(F)cc(F)cc2s1)c1ccccn1
 : i	0.9	1%	-1.5	6.2	0.67	-0.5

Complete entries, looked up by structure. Order of values: FGF22 binding, UCH37 DUB inh, Vif A3G, RanGTP-Impb inh, HNF4A DNA FP, Ecoli growth, AF4-AF9 inh
`O=C(NCCCn1ccnc1)c1ccc(Br)o1` reads i, 0.5, 24%, 3.6, 1.8, 0.68, 3.9
`O=C(Nc1nc2c(F)cc(F)cc2s1)c1ccccn1` reads i, 0.9, 1%, -1.5, 6.2, 0.67, -0.5
`Cc1ccc(NC(=O)C2CCN(S(=O)(=O)c3ccc4c(c3)NC(=O)CO4)CC2)cc1C` reads i, 3.5, ·, -4.5, 1.1, 0.7, 2.1

High-throughput results deposited in PubChem by several laboratories.
